Bioassay records deposited in PubChem BioAssay by Broad Institute.
p53 mut binder = mutant p53 (human) binding | AID 624136 | small molecule microarray binding, anti-GST fluorescence | hit rate 0.4% among 17,000 | calls only;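 active means compounds whose four printed spots each glow above background more than chance allows, each with a p-value under 7%; compounds were printed on slides so no solution concentration is given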;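 further: about 2 pmol printed per array spot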
STAT3 SMM = STAT3 (human) binding; P40763; Small molecule microarray, His-STAT3 binding, anti-His fluorescence; calls only; hit rate 0.2% among 17,000;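 active means compounds whose four printed spots each show fluorescence over background unusually high for their array block, chance value under 7%; compounds were printed on slides so no solution concentration is given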;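 further: about 2 pmol printed per array spot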
Target sequence (P40763 whole entry, looked up): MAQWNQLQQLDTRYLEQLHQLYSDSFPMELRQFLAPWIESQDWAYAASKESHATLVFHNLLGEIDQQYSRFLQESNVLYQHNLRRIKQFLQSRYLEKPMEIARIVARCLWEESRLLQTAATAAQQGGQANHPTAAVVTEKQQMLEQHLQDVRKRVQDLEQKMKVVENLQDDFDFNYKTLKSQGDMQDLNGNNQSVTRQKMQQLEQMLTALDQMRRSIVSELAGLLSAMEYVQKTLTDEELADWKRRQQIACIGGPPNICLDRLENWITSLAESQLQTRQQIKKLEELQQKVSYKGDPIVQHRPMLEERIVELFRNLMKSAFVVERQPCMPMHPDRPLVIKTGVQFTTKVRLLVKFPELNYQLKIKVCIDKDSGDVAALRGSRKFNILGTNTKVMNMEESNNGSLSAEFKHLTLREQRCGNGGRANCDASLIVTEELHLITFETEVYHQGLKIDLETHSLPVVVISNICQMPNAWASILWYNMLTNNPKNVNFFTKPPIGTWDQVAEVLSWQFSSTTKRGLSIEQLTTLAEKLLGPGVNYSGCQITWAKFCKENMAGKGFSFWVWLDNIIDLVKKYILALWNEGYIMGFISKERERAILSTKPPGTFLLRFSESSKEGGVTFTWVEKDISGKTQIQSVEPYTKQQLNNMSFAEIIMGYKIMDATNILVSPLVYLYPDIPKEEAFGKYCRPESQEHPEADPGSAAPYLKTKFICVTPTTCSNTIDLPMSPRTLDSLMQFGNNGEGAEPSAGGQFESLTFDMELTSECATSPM
ID4 SMM = binds human ID4 protein on microarray. small molecule microarray, Flag-ID4 binding, fluorescence F/B. hit rate 1.2% among 31,000. P47928. calls only;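 active means spot signal over background at p below 0.07 in all four prints; compounds were printed on slides so no solution concentration is given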;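 further: a binder raises fluorescence above local background on the spot; about 2 pmol printed per array spot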
Target sequence (P47928 whole entry, looked up): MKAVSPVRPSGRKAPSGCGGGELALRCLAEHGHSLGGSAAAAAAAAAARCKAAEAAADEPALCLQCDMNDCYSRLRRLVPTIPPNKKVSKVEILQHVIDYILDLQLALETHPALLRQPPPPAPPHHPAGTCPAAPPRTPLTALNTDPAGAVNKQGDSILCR
Myc binder = binders of human c-Myc. P01106. small molecule microarray, His-c-Myc binding, anti-His fluorescence. calls only. hit rate 1.5% among 17,000. AID 624141;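 active means spot fluorescence over background with P-value below 7% in all four replicate spots, showing protein binding; compounds were printed on slides so no solution concentration is given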;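 further: score is binary with 100 for all four spots passing and 0 otherwise; about 2 pmol printed per array spot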
Calls only; i = inactive; x = no result given; + = active, no number.

SMILES,STAT3 SMM,ID4 SMM,p53 mut binder,Myc binder
CC(=O)OC1CC2(C)C(CCC3C4(C)CCC(=O)C(C)C4C(O)C(=O)C32C)/C1=C(\CCC=C(C)C)C(=O)O (configuration not stated),i,i,i,i
CCCCC(Nc1ncnc2ccccc12)C(=O)O (configuration not stated),i,i,i,i
COc1ccc(S(=O)(=O)N(C)C[C@@H]2Oc3ccc(NC(=O)CCN4CCOCC4)cc3C(=O)N([C@H](C)CO)C[C@H]2C)cc1,i,i,i,i
CCCC(O)C#Cc1cnc2c(c1)C(=O)N([C@H](C)CO)C[C@H](C)[C@H](CN(C)S(=O)(=O)c1cccs1)O2 (some centres not stated),i,i,i,i
N#Cc1cc2c(nc1SCCS(=O)(=O)c1nc3ccccc3s1)CCCC2,i,i,i,i
CNC[C@H]1Oc2ccc(NS(=O)(=O)c3cccs3)cc2CC(=O)N([C@@H](C)CO)C[C@H]1C,i,i,i,i
COc1ccc(C2=NOC(C(=O)NO)C2)cc1OC1CCCC1 (configuration not stated),i,i,i,i
C[C@H](CO)N1C[C@H](C)[C@H](CN(C)S(=O)(=O)c2cn(C)cn2)OCCCC[C@H](C)Oc2ccc(NS(=O)(=O)c3cn(C)cn3)cc2C1=O,i,i,i,i
COc1ccc(S(=O)(=O)Nc2cccc3c2O[C@H](CN(C)C)[C@@H](C)CN([C@H](C)CO)C3=O)cc1,i,i,i,i
COc1ccc(S(=O)(=O)N(C)C[C@@H]2Oc3ccc(NC(=O)Cn4cnnn4)cc3C(=O)N([C@@H](C)CO)C[C@@H]2C)cc1,i,i,i,i
CSc1nsc(SCC(=O)c2ccc([N+](=O)[O-])cc2)n1,i,i,i,i
Cc1noc(C)c1S(=O)(=O)N(C)C[C@H]1Oc2ccc(NC(=O)Cc3ccccc3)cc2CC(=O)N([C@@H](C)CO)C[C@H]1C,i,i,i,i
CNC[C@H]1Oc2c(NC(=O)NC3CCCCC3)cccc2C(=O)N([C@H](C)CO)C[C@@H]1C,i,i,i,i
C[C@@H]1CCCCO[C@@H](CN(C)Cc2ccc3c(c2)OCO3)[C@H](C)CN([C@@H](C)CO)C(=O)c2cc(NS(=O)(=O)c3ccccc3)ccc2O1,i,i,i,i
Cc1onc(-c2ccccc2Cl)c1C(=O)NCc1nc(-c2ccccc2)no1,i,i,i,i

The list goes on.
SMILES,STAT3 SMM,ID4 SMM,p53 mut binder,Myc binder
CC1CCc2c(sc(NC(=O)c3cc4n(n3)C(C(F)(F)F)CC(c3ccco3)N4)c2C(N)=O)C1 (configuration not stated),i,i,i,i
Cc1ccc(S(=O)(=O)N(C)C[C@@H]2OCCCC[C@H](C)Oc3ccc(NS(=O)(=O)c4cccs4)cc3C(=O)N([C@H](C)CO)C[C@H]2C)cc1,i,x,i,i
Cc1cc(C)cc(N2C(=O)CS(=O)(=O)C2c2ccccc2)c1 (configuration not stated),i,i,i,i
O=C1CS(=O)(=O)C(c2cccc([N+](=O)[O-])c2)N1c1ccccc1 (configuration not stated),i,i,i,i
Cc1noc(C)c1S(=O)(=O)Nc1ccc2c(c1)CC(=O)N([C@@H](C)CO)C[C@@H](C)[C@H](CN(C)S(=O)(=O)c1ccccc1)O2,i,i,i,i
O=C(CCO)c1ccc(O)cc1,i,x,i,i
O=C(CN1C(=O)c2cccc3cccc1c23)NCc1ccco1,i,i,i,i
COc1ccc(C#Cc2ccc3c(c2)[C@]2(C(=O)N3)[C@H](C(N)=O)[C@H]3C(=O)O[C@H](c4ccccc4)[C@H](c4ccccc4)N3[C@@H]2c2ccccc2OCCO)cc1,i,x,i,i
C[C@H](CO)N1C[C@H](C)[C@H](CN(C)C(=O)c2ccc3ccn(C)c3c2)OCc2cn(nn2)CCCC1=O,i,i,i,i
C[C@@H]1CN([C@@H](C)CO)C(=O)c2cccc(NS(C)(=O)=O)c2O[C@H]1CN(C)S(=O)(=O)c1cccs1,i,i,i,i
O=C(O)COc1ccc(OCCNC[C@@H](O)COc2ccccc2)cc1,i,+,i,i
O=C(Nc1ccccc1)c1ccc(S(=O)(=O)NCc2ccncc2)cc1,i,i,i,i
Cc1noc(C)c1NC(=O)N(C)C[C@@H]1OCCCC[C@@H](C)Oc2ccc(N(C)C)cc2C(=O)N([C@@H](C)CO)C[C@@H]1C,i,i,i,i
C=CC1C(OC2OC(CO)C(O)C(O)C2O)OC=C(C(=O)OC)C1CC1CC(=O)CC(CC(=O)CCc2ccc(O)cc2)O1 (configuration not stated),i,i,i,i
CCOC(=O)CNC(=O)c1cc2nc(-c3ccc(Cl)s3)cc(C(F)(F)F)n2n1,i,i,i,i

Other compounds follow:
SMILES,STAT3 SMM,ID4 SMM,p53 mut binder,Myc binder
Cc1noc(C)c1NC(=O)N(C)C[C@H]1OCCCC[C@H](C)Oc2ccc(NC(=O)CCC(F)(F)F)cc2C(=O)N([C@@H](C)CO)C[C@H]1C,i,i,i,i
C[C@@H]1CN([C@@H](C)CO)C(=O)CCCn2cc(nn2)CO[C@@H]1CN(C)C(=O)Nc1ccc(N2CCCCC2)cc1,i,i,i,i
C[C@@H]1CN([C@H](C)CO)C(=O)Cc2cc(NS(=O)(=O)c3ccccc3)ccc2O[C@@H]1CN(C)C(=O)Nc1ccc2c(c1)OCO2,i,i,i,i
Cc1noc(C)c1S(=O)(=O)Nc1ccc2c(c1)C(=O)N([C@@H](C)CO)C[C@H](C)[C@@H](CN(C)C(=O)Nc1ccc(F)cc1)OCCCC[C@@H](C)O2,i,x,i,i
Cc1noc(C)c1S(=O)(=O)Nc1ccc2c(c1)C(=O)N([C@@H](C)CO)C[C@H](C)[C@@H](CN(C)C)OCCCC[C@H](C)O2,i,i,i,i
C[C@@H]1CN([C@H](C)CO)C(=O)Cc2cc(NC(=O)Nc3ccc(C(F)(F)F)cc3)ccc2O[C@H]1CN(C)Cc1ccncc1,i,i,i,i
N#CC(OC1OC(COC2OCC(OC(=O)/C=C/c3ccc(OC4OC(CO)C(O)C(O)C4O)cc3)C(O)C2O)C(O)C(O)C1O)c1ccccc1 (configuration not stated),i,x,i,i
COc1cc(/C=C/CO)ccc1O[C@@H]1O[C@H](CO)[C@@H](O)[C@H](O)[C@H]1O,i,x,i,i
COc1ccc(NC(=O)Nc2cccc3c2O[C@H](CN(C)S(=O)(=O)c2ccc(Cl)cc2)[C@@H](C)CN([C@@H](C)CO)C3=O)cc1,i,i,i,i
C[C@H]1CN([C@@H](C)CO)C(=O)c2cccc(NC(=O)C3CCOCC3)c2O[C@@H]1CN(C)Cc1ccc(C(F)(F)F)cc1,i,i,i,i
C[C@@H]1CN([C@@H](C)CO)C(=O)Cc2cc(NS(=O)(=O)c3ccccc3)ccc2O[C@@H]1CN(C)C(=O)NC1CCCCC1,i,i,i,i
CC(C)=CCc1cc(/C=C2\OC(=O)C(c3cc4c(cc3O)OC(C)(C)CC4)C2=O)ccc1O (configuration not stated),i,i,i,i
C[C@@H]1CN([C@@H](C)CO)C(=O)CCCn2cc(nn2)CO[C@@H]1CN(C)S(=O)(=O)c1cn(C)cn1,i,i,i,i
O=C(CCCCC(=O)Nc1c(I)cc(I)c(C(=O)O)c1I)Nc1c(I)cc(I)c(C(=O)O)c1I,i,i,i,i
C[C@@H]1CN([C@@H](C)CO)C(=O)Cc2cc(NC(=O)CCC(F)(F)F)ccc2O[C@@H]1CN(C)S(=O)(=O)c1ccccc1,i,i,i,i

More records follow:
SMILES,STAT3 SMM,ID4 SMM,p53 mut binder,Myc binder
C[C@H](CO)N1C[C@H](C)[C@@H](CN(C)Cc2ccc3c(c2)OCO3)Oc2ccc(NC(=O)c3ccncc3)cc2C1=O,i,x,i,i
C[C@@H]1CN([C@H](C)CO)C(=O)c2cc(NC(=O)Nc3ccc4c(c3)OCO4)ccc2O[C@H]1CN(C)C(=O)Nc1ccc(C(F)(F)F)cc1,i,i,i,i
C=C[C@](C)(O)CC/C=C(\C)C(=O)O[C@@H]1[C@@H]2O[C@]2(C)[C@H]2[C@H](O[C@@H]3O[C@H](CO)[C@@H](O)[C@H](O)[C@H]3O)OC=C[C@@]12OC(=O)/C(C)=C/CC[C@](C)(O)C=C,i,x,i,i
O=C(O)CCc1ccc(-c2cccs2)n1-c1cc(Cl)ccc1O,i,i,i,i
COc1ccc(CSCC(N)C(=O)O)cc1Br (configuration not stated),i,i,i,i
O=C(NCCO)C(=O)NCc1ccco1,i,i,i,i
O=C(Cn1c(COc2ccccc2)nc2ccccc21)N1CCOCC1,i,i,i,i
Cc1noc(C)c1S(=O)(=O)Nc1ccc2c(c1)C(=O)N([C@H](C)CO)C[C@@H](C)[C@@H](CN(C)C(=O)Cc1ccccc1)OCCCC[C@H](C)O2,i,i,i,i
Cc1noc(C)c1NC(=O)N(C)C[C@H]1Oc2ccc(NC(=O)Cc3ccccc3)cc2C(=O)N([C@@H](C)CO)C[C@@H]1C,i,i,i,i
O=C(C1=C[C@H](c2ccccc2)C[C@H](OCc2ccc(CO)cc2)O1)N1CCOCC1,i,i,i,i
CCCCCCCCNC(C)C(O)c1ccc(SC(C)C)cc1 (configuration not stated),i,i,i,i
Cc1noc(C)c1NC(=O)N(C)C[C@@H]1OCCCC[C@@H](C)Oc2ccc(NC(=O)Nc3ccccc3)cc2C(=O)N([C@H](C)CO)C[C@@H]1C,i,x,i,i
CC(C)=CCC/C(C)=C/CC/C(C)=C/Cc1c(C)cc(O)cc1O,i,x,i,i
O=C(CSc1nc(-c2ccccc2)cc(=O)[nH]1)NCC1CCCO1 (configuration not stated),i,+,i,i
NC(=O)COc1ccc(C2NC(=S)NC(c3ccccc3)=C2C(=O)c2ccccc2)cc1 (configuration not stated),i,i,i,i

Record cards (already shown).
Record of Cc1noc(C)c1NC(=O)N(C)C[C@H]1Oc2ccc(NC(=O)Cc3ccccc3)cc2C(=O)N([C@@H](C)CO)C[C@@H]1C = STAT3 SMM: i; ID4 SMM: i; p53 mut binder: i; Myc binder: i
Record of CCCCCCCCNC(C)C(O)c1ccc(SC(C)C)cc1 (configuration not stated) = STAT3 SMM: i; ID4 SMM: i; p53 mut binder: i; Myc binder: i

The listing continues.
SMILES,STAT3 SMM,ID4 SMM,p53 mut binder,Myc binder
C[C@@H]1CN([C@@H](C)CO)C(=O)CCCn2cc(nn2)CO[C@H]1CN(C)C(=O)C1CC1,i,i,i,i
C[C@H](CO)N1C[C@H](C)[C@H](CN(C)Cc2ccc(Cl)c(Cl)c2)Oc2ccc(NS(=O)(=O)c3cn(C)cn3)cc2CC1=O,i,x,i,i
C[C@H]1CCCCO[C@H](CN(C)C(=O)CCC(F)(F)F)[C@@H](C)CN([C@@H](C)CO)C(=O)c2cc(NS(C)(=O)=O)ccc2O1,i,i,i,+
CC(C)(C)[C@H]1C=C(C(=O)O)O[C@@H](OCCCCO)C1,i,x,i,i
C[C@H]1CN([C@@H](C)CO)C(=O)c2cccc(NC(=O)C3CCOCC3)c2O[C@H]1CN(C)Cc1ccc(Oc2ccccc2)cc1,i,i,i,i
CCc1c(O)nc(SCC(=O)Nc2ccc(C(C)=O)cc2)[nH]c1=O,i,+,i,i
C[C@@H]1CN([C@H](C)CO)C(=O)c2cccc(NC(=O)c3nc4ccccc4s3)c2O[C@@H]1CN(C)S(=O)(=O)c1cccs1,i,i,i,i
NC(=O)NCC#Cc1ccc2c(c1)[C@]1(C(=O)N2)[C@H](c2ccccc2OCCO)N2[C@H](c3ccccc3)[C@H](c3ccccc3)OC(=O)[C@H]2[C@@H]1C(=O)NC[C@H](O)c1ccccc1,i,i,i,i
C[C@]12CCC3C(CC[C@@H]4C[C@H](O)CC[C@]34C)C1CC[C@]2(O)C(=O)CO (some centres not stated),i,x,i,i
CCCNC(=O)Cc1ccc(N2C(=O)CSC2c2ccccc2)cc1 (configuration not stated),i,i,i,i
COC(=O)C(CC#Cc1ccc2c(c1)[C@]1(C(=O)N2)[C@H](C(=O)NC[C@H](O)c2ccccc2)[C@H]2C(=O)O[C@H](c3ccccc3)[C@H](c3ccccc3)N2[C@@H]1c1ccc(O)cc1)C(=O)OC,i,x,i,i
Cc1noc(C)c1S(=O)(=O)Nc1cccc2c1O[C@@H](CN(C)Cc1ccc(Oc3ccccc3)cc1)[C@@H](C)CN([C@@H](C)CO)C2=O,i,i,i,i
O=C(Cn1cnc([N+](=O)[O-])c1)Nc1ccc(Cl)cc1Cl,i,i,i,i
Cc1ccc(S(=O)(=O)NCC(=O)N2CCN(c3ccccn3)CC2)cc1,i,i,i,i
C[C@H]1CN([C@@H](C)CO)C(=O)CCCn2cc(nn2)CO[C@H]1CN(C)S(=O)(=O)c1ccc2c(c1)OCCCO2,i,i,i,i

New compounds follow.
SMILES,STAT3 SMM,ID4 SMM,p53 mut binder,Myc binder
O=[N+]([O-])c1cccc(/C=C/CO)c1,i,i,i,i
NC(=O)C1=C[C@H](c2ccc(C(F)(F)F)cc2)C[C@H](OCc2ccc(CO)cc2)O1,i,i,i,i
O=C(Cn1c2ccccc2n2nc(-c3ccco3)nc12)c1ccccc1,i,i,i,i
Cc1ccc(C)c(OCCCCSc2ncccn2)c1Cl,i,i,i,i
COc1ccc(NC(=O)Nc2cccc3c2O[C@@H](CN(C)S(=O)(=O)c2ccc(OC)cc2)[C@H](C)CN([C@@H](C)CO)C3=O)cc1,i,i,i,i

The list is partial; the hit share may differ from the screen's.
